Bioassay records (PubChem)
UUG fidelity – modulators of start codon recognition fidelity in yeast; S. cerevisiae UUG-firefly luciferase reporter, luminescence/redox ratio; activity score, % at 18.7 µM; 350,000 compounds, 0.13% hits;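 active = replicate mean at a twofold rise or more, about +100% in these data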;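 also: firefly luciferase made from a UUG start codon reports start codon fidelity; reporter light over untreated wells divided by growth signal over untreated wells; some hits fall short of that in this replicate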
MT1-MMP act inh – MT1-MMP (human) activation inhibition; HT1080 RFP-PRO-GFP cells, GFP/RFP ratio fluorescence, overnight; percent of plate control window, DMSO zero; GFP/RFP ratio change, % at 20 µM; 360,000 compounds, 0.061% hits;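 active = GFP/RFP ratio change of at least 30% with cell ATP level not reduced by more than half and red fluorescence within 50% of control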; also: strong numbers were not always called active
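Read-out: GFP/RFP fluorescence ratio; Test system: RFP-PRO-GFP reporter HT1080 cells; Compound dosing: single-point 20 µM compound, 1% DMSO; Times: overnight compound exposure at 37 °C.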
MT1-MMP act inh RFP – recorded beside MT1-MMP act inh, whose call it bears; RFP signal change, %; measured here: RFP expression control read;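 0 = vehicle wells; hits needed this value within 50% of zero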
The depositor's hits bear a star. Not all compounds are listed; the hit share may differ from the screen's.

SMILES | UUG fidelity | MT1-MMP act inh | MT1-MMP act inh RFP
CCOC(=O)c1c(NC(=O)C(C)OC(=O)C2=COCCO2)sc2c1CCCC2 (stereo unspecified) | -14 | -1 | -7
CC1=C(C(=O)N(C)C)CC(CC(=O)NCCN2CCOCC2)C(=O)N1Cc1ccc(F)cc1 (stereo unspecified) | 32 | 3 | 5
Cc1ccc(OCC(=O)c2c(N)n(C)c(=O)n(C)c2=O)c([N+](=O)[O-])n1 | -19 | -11 | -1
CCN(CC)C(=O)C1=C(C)N(Cc2ccc(OC)cc2)C(=O)C(CC(=O)NCC2CCCCC2)C1 (stereo unspecified) | 46 | 2 | 0
CCOC1=C2[C@H](c3ccc(CC)cc3)N(S(=O)(=O)c3ccc(C)cc3)C[C@H]2n2c(=O)n(-c3ccccc3)c(=O)n2C1 | 0 | 0 | -1
COCC(C)NC(=O)CSc1nc2cc(S(=O)(=O)N3CCCCC3)ccc2o1 (stereo unspecified) | -14 | 5 | -5
O=C(NN1C(=O)NC2(CCCCC2)C1=O)c1ccc(-c2ccccc2Cl)o1 | 4 | 1 | 2
O=C(COC(=O)c1cc(S(=O)(=O)N2CCOCC2)c(Cl)cc1Cl)c1ccc[nH]1 | -6 | 0 | 2
COc1cc(CCN(C(=O)c2cccc(S(C)(=O)=O)c2)C(CCc2ccccc2)c2nc3ccccc3[nH]2)cc(OC)c1 (stereo unspecified) | -6 | -1 | 2
CCN(CC)S(=O)(=O)c1cccc(NC(=O)c2cccc(S(=O)(=O)N3CCCC3)c2)c1 | 13 | 4 | -5
Clc1cccc(Cc2c(C3CCCCC3)nc3ccc(Cl)cn23)c1 | -4 | -3 | -6
Cc1ccc(/C=C/S(=O)(=O)NCCC(=O)NCc2ccc(F)cc2)cc1 | -17 | -1 | -1
O=C(COC(=O)c1ccc(F)c(S(=O)(=O)N2CCOCC2)c1)NCc1ccccc1 | -5 | 0 | 0
CC1CCCN(C(=O)C2CCN(S(=O)(=O)c3cccs3)CC2)C1 (stereo unspecified) | -18 | 4 | 0
COc1ccc(NC(=O)C2CC(=O)N(c3ccccc3F)C2)cc1S(=O)(=O)N1CCCCC1 (stereo unspecified) | -2 | 3 | -2
COc1cc(OC)cc(OC(=O)C2CCN(C3=NS(=O)(=O)c4ccccc43)CC2)c1 | -6 | 1 | 0
CCCS(=O)(=O)NC(=O)C1(C)CCN(C(=O)c2ccccc2Br)C1 (stereo unspecified) | -10 | 2 | 4
O=C(COC(=O)c1ccc2ncsc2c1)NCc1ccc(Cl)cc1 | -15 | -5 | 0
O=[N+]([O-])c1csc2ccccc12 | -23 | -1 | 2
CCNC(=O)NC(=O)CSc1ccc(S(=O)(=O)N2CCCCC2)cn1 | -2 | 3 | 2
CC(C)C[C@@H](CN)NC(=O)c1nc[nH]c1C(=O)N[C@@H](CC(C)C)C(=O)CNC[C@H](C)NC(=O)c1nc[nH]c1C(=O)N[C@@H](CC(C)C)C(=O)O | 5 | 3 | 5
CNC(=O)c1ccc(NC(=O)c2ccccc2OCc2c(C)noc2C)cc1 | -4 | 0 | 5
CC(C)(C)S(=O)N1Cc2cc(C(=O)NCc3ccc4c(c3)OCO4)nc(-c3cccc(-c4ccccc4)c3)c2[C@@H]1CCO (stereo partly specified) | -8 | 0 | -4
N#CCC(C(=O)c1cccnc1)c1ccccc1 (stereo unspecified) | -5 | -2 | 1
CC(=O)c1c(C)[nH]c(C(=O)C(C)Sc2nnc(NC3CC3)s2)c1C (stereo unspecified) | -13 | -2 | -27
Additional entries follow:
SMILES | UUG fidelity | MT1-MMP act inh | MT1-MMP act inh RFP
Cc1cc(NC(=O)Cn2c(=O)oc3ccccc32)no1 | -14 | -1 | 7
CCOC(=O)C1CCN(C(=O)c2ccc(N3CCCC3=O)cc2)CC1 | -13 | -4 | 0
Cn1c(N)c(C(=O)CSc2nnc(C3CC3)n2N)c(=O)n(C)c1=O | -12 | 2 | 0
COc1cccc(C(=O)N(Cc2ccco2)c2c(N)n(Cc3ccccc3)c(=O)[nH]c2=O)c1 | -7 | -3 | 0
S=C(NCCc1ccccc1)Nc1ncccn1 | -15 | 2 | 3
Cc1ccc(C2(C)NC(=O)N(CC(=O)N3CCN(S(=O)(=O)c4ccccc4[N+](=O)[O-])CC3)C2=O)cc1 (stereo unspecified) | 1 | 2 | 0
CCOc1ccc(NC(=O)CN(C)C(=O)c2c(-c3ccccc3)noc2C)cc1OCC | -8 | 1 | 4
CC(C)(C)OC(=O)N1CCN(C(=O)c2ncn3c2c(=O)[nH]c2ccccc23)CC1 | -12 | 0 | 5
COc1ccc(OC)c(-c2csc(NC(=O)COC(=O)C3CCC3)n2)c1 | 2 | -1 | 5
Cc1cn([C@H]2C[C@H](O)[C@@H](CNCc3cccn3-c3ccncc3)O2)c(=O)[nH]c1=O | 4 | 1 | 2
Cc1ccc2nc3n(c(=O)c2c1)-c1ncccc1C(=O)NC3Cc1ccc(O)cc1 (stereo unspecified) | -14 | -1 | 7
O=C(COC(=O)c1ccc(F)cc1F)Nc1ccc(Cl)cn1 | -24 | -5 | 4
Cc1ccc2c(c1)C1CN(C)CCC1N2S(=O)(=O)c1ccccc1F (stereo unspecified) | -13 | -3 | 1
Cc1cn([C@H]2C[C@H](O)[C@@H](CCC(=O)NCc3cccs3)O2)c(=O)[nH]c1=O | -10 | 2 | 8
O=C1NC(=O)C(Cc2ccccc2)(c2ccccc2)N1 (stereo unspecified) | -8 | 0 | 2
COc1ccc(NC(=O)COC(=O)c2cc3c(s2)CCC3)cc1 | -10 | 0 | 2
COc1ccccc1NS(=O)(=O)c1ccc2oc(SC(C)C(=O)N3CCNC3=O)nc2c1 (stereo unspecified) | 9 | 7 | -12
O=C(C[C@@H]1C/C=C\C[C@H](NC(=O)OCC2c3ccccc3-c3ccccc32)C(=O)OC[C@H]2CCCN2C1=O)NCCO | -5 | 13 | 4
CC(OC(=O)CSc1ccc([N+](=O)[O-])cc1)C(=O)NC1CC1 (stereo unspecified) | -20 | 7 | 4
Cc1ccc(NC(=O)CCS(=O)(=O)c2ccccc2)cc1S(=O)(=O)N1CCCCCC1 | -6 | 2 | -7
COc1ccc(-c2ccc3c(c2)S(=O)(=O)c2cccc(C(=O)N4CCN(c5ccccn5)CC4)c2C3=O)cc1OC | -7 | 0 | -4
O=C(CN1C(=O)NC2(CCCCC2)C1=O)Nc1cccc(S(=O)(=O)N2CCCC2)c1 | 7 | 6 | -2
CC(C)N(C)S(=O)(=O)c1ccc(NC(=O)C2=COCCO2)cc1 | -10 | 1 | -1
O=C(/C=C/[C@H]1O[C@@H](n2ccc(=O)[nH]c2=O)[C@H](O)[C@@H]1O)NCc1ccccc1 | -14 | 0 | 1
CCN(C(=O)COC(=O)c1ccccc1NCc1ccco1)c1c(N)n(Cc2ccccc2)c(=O)[nH]c1=O | -7 | -6 | -2

Reprinted at random: 3 entries already listed.
SMILES | UUG fidelity | MT1-MMP act inh | MT1-MMP act inh RFP
COc1ccc(OC)c(-c2csc(NC(=O)COC(=O)C3CCC3)n2)c1 | 2 | -1 | 5
O=C(CN1C(=O)NC2(CCCCC2)C1=O)Nc1cccc(S(=O)(=O)N2CCCC2)c1 | 7 | 6 | -2
CC(OC(=O)CSc1ccc([N+](=O)[O-])cc1)C(=O)NC1CC1 (stereo unspecified) | -20 | 7 | 4

Additional compounds:
SMILES | UUG fidelity | MT1-MMP act inh | MT1-MMP act inh RFP
Cc1ccc(NC(=O)CSCC(=O)OC(C)C(=O)Nc2ccccc2C)cc1 (stereo unspecified) | -12 | 4 | 2
CC1=C(C(=O)N2CCCCCC2)CC(CC(=O)NCc2ccco2)C(=O)N1Cc1ccccc1 (stereo unspecified) | 9 | 4 | 5
CCc1nc2c(OCC(=O)C(C)(C)C)cccn2c1N(C)C(=O)C(C)C | -6 | 4 | 5
O=C(CCNC(=O)c1ccc([N+](=O)[O-])cc1)NCc1ccco1 | -3 | 3 | 6
CSCCC(NC(=O)c1ccccc1)C(=O)NCCc1ccc2c(c1)OCCO2 (stereo unspecified) | -6 | 8 | 3
C[C@@H]1CN([C@@H](C)CO)C(=O)c2cc(NS(C)(=O)=O)ccc2O[C@@H](C)CCCCO[C@H]1CN(C)C(=O)Nc1ccc2c(c1)OCO2 | 1 | -2 | 3
Cn1ccc2c(-c3cccnc3)cc3c(c21)C1CCC3O1 (stereo unspecified) | -8 | -3 | -1
C/C=C1\NC(=O)[C@H](C)NC(=O)[C@@H](NC(=O)[C@H](Cc2ccc(O)cc2)NC(=O)[C@@H](NC(=O)/C(C)=C/C)C(C)C)[C@@H](C)OC(=O)[C@H](CCCc2ccc(O)cc2)NC(=O)[C@@H](CCC(=O)OC)NC1=O | 26 | 2 | 1
O=c1oc(-c2ccccc2)cc2ccccc12 | -11 | -4 | -1
Cc1c(C(=O)N2CCN(c3ccc([N+](=O)[O-])cc3)CC2)oc2ccccc12 | -7 | 2 | -9
Cc1cc(C)n(CC(=O)NNC(=O)COc2ccc(Cl)cc2Cl)n1 | -10 | 1 | 1
Cc1cc(C)n2nc(N)nc2n1 | -22 | 0 | 2
CCCCCCN1C[C@H](n2cc(C3CC3)nn2)[C@@H](O)C[C@@H]1c1ccc(OC)cc1 | -2 | 6 | 3
COc1ccc(CN(C)C(=O)Cn2cc(C)c(=O)[nH]c2=O)cc1OC | -8 | -1 | 0
O=C(Nc1ccc2c(c1)OCO2)c1ccc(CO)cc1 | -23 | 1 | 3
CC[C@@H]1C(c2cccc(Cl)c2)=NN(c2ccc(Br)cc2)[C@H]1C(=O)N1CCOC1=O | -22 | 2 | 3
COc1ccccc1CNC(=O)COC(=O)c1sc(C)nc1C | -21 | 4 | -1
CNC[C@@H]1OCc2ccccc2-c2ccccc2C(=O)N([C@H](C)CO)C[C@@H]1C | 10 | 0 | -1
Cc1ccc(-c2ccccc2C2=CC(=O)CC(C)(C)C2=O)cc1 | -3 | -1 | -1
CC(=O)N1CCN(C(=O)c2[nH]c(C(F)(F)F)nc2-c2ccccc2)CC1 | -11 | 2 | 2
O=C(CCOc1ccccc1)Nc1ccc(S(=O)(=O)Nc2ncccn2)cc1 | -9 | -2 | 5
Cc1occc1C(=O)N/N=C/C1=C(N2CCOCC2)C(=C/c2ccc(Cl)cc2Cl)/CC1 | -17 | -7 | -1
O=c1oc(-c2ccccc2)c(-c2ccccc2)c2ccccc12 | -18 | -4 | 2
CC1(c2nc3ccccc3[nH]2)CCC(=O)N1Cc1ccccn1 (stereo unspecified) | -8 | 5 | 7
O=C(NCC(F)(F)F)c1[nH]c(C(F)(F)F)nc1-c1ccccc1 | 2 | 4 | 5

Full records, quoted from the list:
`Cc1c(C(=O)N2CCN(c3ccc([N+](=O)[O-])cc3)CC2)oc2ccccc12` as listed: UUG fidelity: -7; MT1-MMP act inh: 2; MT1-MMP act inh RFP: -9
`O=C(Nc1ccc2c(c1)OCO2)c1ccc(CO)cc1` as listed: UUG fidelity: -23; MT1-MMP act inh: 1; MT1-MMP act inh RFP: 3

Additional compounds follow.
SMILES | UUG fidelity | MT1-MMP act inh | MT1-MMP act inh RFP
CCN1C(=O)[C@H]2[C@@H](c3ccc(OC)cc3)N[C@]3(CCCN(Cc4ccc(OC)cc4)C3=O)[C@H]2C1=O | -27 | 0 | 0
COc1cccc(C(N)c2nc(-c3csc4ccccc34)cs2)c1 (stereo unspecified) | -9 | -8 | -15
O=C(COC(=O)/C=C/c1cccc(C(F)(F)F)c1)NC1CCS(=O)(=O)C1 (stereo unspecified) | -1 | 1 | 3
Cc1ccc(S(=O)(=O)N2C[C@H]3C(=O)C[C@@H](c4ccccc4)N(S(=O)(=O)c4ccccc4)[C@H]3C[C@H]2c2ccccc2)cc1 | -8 | -2 | -2
CCOc1ccc(NC(=O)[C@@H]2CCCN2C(=O)c2cccs2)cc1S(=O)(=O)N1CCOCC1 | 8 | -6 | -1
O=C(COC(=O)c1ccccc1Cl)Nc1cccnc1Cl | 10 | 4 | 2

In the list so far, 3 have a tert-butyl group:
SMILES | UUG fidelity | MT1-MMP act inh | MT1-MMP act inh RFP
CC(C)(C)S(=O)N1Cc2cc(C(=O)NCc3ccc4c(c3)OCO4)nc(-c3cccc(-c4ccccc4)c3)c2[C@@H]1CCO (stereo partly specified) | -8 | 0 | -4
CC(C)(C)OC(=O)N1CCN(C(=O)c2ncn3c2c(=O)[nH]c2ccccc23)CC1 | -12 | 0 | 5
CCc1nc2c(OCC(=O)C(C)(C)C)cccn2c1N(C)C(=O)C(C)C | -6 | 4 | 5

An excerpt from above in order of their number in MT1-MMP act inh RFP, falling:
SMILES | UUG fidelity | MT1-MMP act inh | MT1-MMP act inh RFP
CNC(=O)c1ccc(NC(=O)c2ccccc2OCc2c(C)noc2C)cc1 | -4 | 0 | 5
CCCS(=O)(=O)NC(=O)C1(C)CCN(C(=O)c2ccccc2Br)C1 (stereo unspecified) | -10 | 2 | 4
S=C(NCCc1ccccc1)Nc1ncccn1 | -15 | 2 | 3
Cn1ccc2c(-c3cccnc3)cc3c(c21)C1CCC3O1 (stereo unspecified) | -8 | -3 | -1
